AddAB inh: less growth of phage-infected E. coli with AddAB; E. coli expressing H. pylori AddAB, absorbance growth; inhibition, % at 11.9 µM; actives 0.29% (n = 330,000); AID 435030; in the data active means inhibition above about 12%;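 further: 0% = vehicle wells of infected cells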
phage Ecoli inh: E. coli growth loss with phage present; growth absorbance; inhibition, % at 11.9 µM; actives 0.26% (n = 360,000); AID 651602; in the data active means inhibition above about 11%
Ecoli viability: counter-screen for AddAB inhibitors: E. coli growth inhibition; E. coli V3065 growth, OD600 absorbance, 18 h; inhibition, % at 11.9 µM; actives 0.27% (n = 330,000);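 active means inhibition above the campaign's mean inhibition across all tested compounds plus 3 SD, cut at about 9.9% in these data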;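 further: uninfected addAB+ strain grown without phage in ampicillin broth; 0% = DMSO wells and 100% = ciprofloxacin 0.95 µg/ml wells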
HTR5A inv ag: inverse agonist of human HTR5A in OPRM1-OPRD1 counter-screen; inhibition, % at 9.3 µM; AID 504634; P47898; HTR5A cell line, luminescence, inverse agonism; actives 0.083% (n = 340,000); in the data active means inhibition mostly above about 23%, no sharp cut-off; inactive means mostly below about 18%;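 further: 0% = cells with DMSO and 100% = no-cell wells with DMSO; some compounds called inactive have numbers as strong as hits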
Pemphigus Ab inh: human desmoglein-3 autoantibody binding inhibition | binding (percent of control), % at 10 µM | DSG3-coupled beads, scFv-anti-DSG3-GFP binding, flow cytometry; hits give low values | P32926 | actives 0.48% (n = 310,000);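 active means binding more than 3 SD below its plate's average and above zero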;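 further: hits lower antibody fragment binding to DSG3; some compounds called inactive have numbers as strong as hits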
Target sequence (P32926 whole entry, looked up, the tested form may be a part): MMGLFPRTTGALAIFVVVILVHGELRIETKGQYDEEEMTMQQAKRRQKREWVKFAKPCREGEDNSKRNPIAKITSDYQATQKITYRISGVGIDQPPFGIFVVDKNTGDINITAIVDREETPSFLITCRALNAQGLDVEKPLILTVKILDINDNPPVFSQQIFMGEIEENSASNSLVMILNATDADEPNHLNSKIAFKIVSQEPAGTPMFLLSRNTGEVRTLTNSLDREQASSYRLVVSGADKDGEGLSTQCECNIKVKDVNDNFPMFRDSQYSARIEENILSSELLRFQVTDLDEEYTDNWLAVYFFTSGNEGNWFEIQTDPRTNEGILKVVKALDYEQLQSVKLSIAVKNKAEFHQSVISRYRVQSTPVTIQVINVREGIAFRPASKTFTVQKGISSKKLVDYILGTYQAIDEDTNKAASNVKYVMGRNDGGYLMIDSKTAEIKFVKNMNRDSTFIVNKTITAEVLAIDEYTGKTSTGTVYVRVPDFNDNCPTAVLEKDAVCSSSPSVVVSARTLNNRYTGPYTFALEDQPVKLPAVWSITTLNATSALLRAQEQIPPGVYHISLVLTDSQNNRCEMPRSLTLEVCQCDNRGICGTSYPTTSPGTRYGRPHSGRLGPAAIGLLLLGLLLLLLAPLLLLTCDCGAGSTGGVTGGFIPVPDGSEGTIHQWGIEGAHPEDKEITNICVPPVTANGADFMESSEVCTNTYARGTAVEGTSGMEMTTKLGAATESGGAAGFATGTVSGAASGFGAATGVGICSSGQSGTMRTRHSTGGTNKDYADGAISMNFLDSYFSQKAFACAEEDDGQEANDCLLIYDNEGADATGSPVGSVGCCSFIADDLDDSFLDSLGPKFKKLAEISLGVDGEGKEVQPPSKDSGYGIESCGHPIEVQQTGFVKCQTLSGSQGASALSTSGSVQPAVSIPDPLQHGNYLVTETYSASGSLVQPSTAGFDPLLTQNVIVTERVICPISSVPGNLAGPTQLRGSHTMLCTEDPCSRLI
PfHsp90 set2: growth inhibition of yeast expressing Plasmodium Hsp90; inhibition, % at 9.4 µM; actives 0.32% (n = 310,000); S. cerevisiae expressing PfHsp90, BacTiter-Glo ATP, 48 h; yeast lacking PDR1 and PDR3 efflux regulators;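 active means every replicate shows inhibition above about 80%, whatever the replicate mean, limit read from the data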;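 further: 0% = DMSO neutral controls and 100% = 20 µM radicicol positive controls; yeast relying on Plasmodium falciparum Hsp90 in place of its own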
HTR5A ag ctr: activates human HTR5A in OPRM1-OPRD1 agonist counter-screen; P47898; HTR5A agonist assay, luminescence, cell-based; activation, % at 9.3 µM; actives 0.61% (n = 340,000); AID 504692; in the data active means activation mostly above about 9.5%, no sharp cut-off; inactive means mostly below about 7.6%;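 further: 0% = cells with vehicle only and 100% = reference agonist; strong numbers were not always called active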
PKA-R1A activ: activators of PKA-R1A complex. activation, % at 11.4 µM. AID 504707. PKA-R1A dissociation, Cy5-IP20 fluorescence polarization; scaled: DMSO 0%, 113 µM cGMP 100%. actives 0.083% (n = 340,000);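 active means percent activation above the mean of all tested compounds plus 3 SD, cut at about 19% in these data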;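 further: higher means more PKAc released from R1A so a rise in polarization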
SUMO Mot1 rescue: blocks SUMOylation pathway, rescuing yeast Mot1-301 growth. S. cerevisiae Mot1-301 growth rescue, ATP luminescence, 38.5C; percent above DMSO median, 100 means doubled. growth rescue, % at 18.8 µM. actives 1% (n = 320,000). AID 2716;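 active means every valid replicate shows activation above 250% relative to neutral control wells; inactive means the rest, any valid replicate at or below 250%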;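 further: OY570 slx delta 5 strain wells were the positive control but not used for scaling; some compounds called inactive have numbers as strong as hits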
* marks the source's active call; other numbers are inactive results; x = not tested or not shown; & = joins results of further samples; ! = not active in a repeat.

Results follow in this order: AddAB inh, phage Ecoli inh, Ecoli viability, HTR5A inv ag, Pemphigus Ab inh, PfHsp90 set2, HTR5A ag ctr, PKA-R1A activ, SUMO Mot1 rescue
1) CCC1(c2ccccc2)NC(=O)N(C)C1=O (configuration not stated)
 : -1.9, 4.7, -0.9, -7.8, 99.8, 2.3, -4.5, -2.1, 8.6
2) O[C@@H](c1cc(C(F)(F)F)nc2c(C(F)(F)F)cccc12)[C@H]1CCCCN1
 : -1.8, 4.2, -0.6, 17.7, 104.9, -9.6, 15.4, 1.4, 3.8
3) CC12C=CC(=O)C=C1CCC1C2C(=O)C[C@@]2(C)C1CCC2(O)C(=O)CO (some centres not stated)
 : -2.1, 2.1, -0.6, 1.8, 110.9, -29.6, -4.2, -8.6, 0.2
4) CN(C)CC/C=C1\c2ccccc2Sc2ccc(Cl)cc21
 : 2.3, 4.9, 0.3, -21.0, 98.4, 0.3, -2.7, 0.7, 497.1*!
5) CC(C)(C)NC(=O)[C@@H]1CN(Cc2cccnc2)CCN1C[C@@H](O)C[C@@H](Cc1ccccc1)C(=O)N[C@H]1c2ccccc2C[C@H]1O
 : -1.8, 4.3, 0.1, -22.2, 125.6, 4.1, 10.4, -4.5, 18.4
6) CC(=O)O[C@H]1C(=O)[C@]2(C)[C@H]([C@H](OC(=O)c3ccccc3)[C@]3(O)C[C@H](OC(=O)[C@H](O)[C@@H](NC(=O)c4ccccc4)c4ccccc4)C(C)=C1C3(C)C)[C@]1(OC(C)=O)CO[C@@H]1C[C@@H]2O
 : -0.2, 3.5, -0.9, -0.4, 92.0, 3.7, 1.8, -3.3, 6.3
7) COC(=O)CCC(=O)CN
 : -0.1, 5.2, -0.2, -26.6, 117.1, -5.0, 11.3, 3.0, -7.8
8) CCCCOc1ccc(OCCCN2CCOCC2)cc1
 : -1.4, 4.3, -2.0, -6.8, 115.5, 4.6, 2.3, 8.1, 345.3
9) COc1cc(NS(C)(=O)=O)ccc1Nc1c2ccccc2nc2ccccc12
 : -0.9, 3.3, 1.5, 12.5, 107.2, -25.9, -0.4, -1.7, 12.4
10) CC(C)NC[C@@H](O)COc1cccc2ccccc12
 : -0.4, 3.0, 0.3, -26.9, 96.4, 10.3, -2.0, 1.4, 11.0
11) Nc1ncnc2c1ncn2C1OC(CO)C(O)C1O (configuration not stated)
 : 0.7, 2.1, 1.4, 9.7, 95.0, 32.1, -3.5, -5.8, 53.6
12) CC(C)NCC(O)c1ccc(NS(C)(=O)=O)cc1 (configuration not stated)
 : -0.4, 2.9, -0.2, 4.2, 108.1, -17.3, 1.5, -5.3, 3.3
13) CC(C)Oc1ccc2c(=O)c(-c3ccccc3)coc2c1
 : -0.5, 5.2, 1.6, -1.6, 115.5, 6.7, -1.1, -4.5, -12.3
14) O=C(NNC(=O)c1ccccc1OCc1ccccc1Cl)c1csc(N2CCOCC2)n1
 : -0.7, -0.6, -3.3, 2.9, 106.8, -1.4, -4.0, 1.9, -4.7
15) Cc1ncc([N+](=O)[O-])n1CC(O)CCl (configuration not stated)
 : 4.4, 3.5, 0.9, -5.4, 112.3, -13.1, 1.8, 12.9, 308.1
16) C[C@]12C=CC(=O)C=C1CC[C@@H]1[C@@H]2C(=O)C[C@@]2(C)[C@H]1CC[C@]2(O)C(=O)CO
 : 0.7&-0.6, 3.3&0.3, -0.2&-0.3, -3.9&-26.4, 102.3&105.0, 19.4&3.7, 0.9&1.5, -8.0&-9.0, -16.5&-7.8
17) CC1=NS(=O)(=O)c2cc(Cl)ccc2N1
 : 0.8, 3.0, 1.7, -11.2, x, -8.4, 3.1, -5.4, -2.7
18) Cc1ccc(/C(=C\CN2CCCC2)c2ccccn2)cc1
 : -2.1, 0.8, -2.2, -14.0, 99.8, -12.1, 3.9, 5.9, -17.4
19) CN1CCC(OC(c2ccccc2)c2ccccc2)CC1
 : -0.4, 3.8, 0.2, -4.0, 104.2, 17.4, 1.1, -11.1, 320.7*!
20) CCN1CCC[C@H]1CNC(=O)c1c(OC)ccc(Br)c1OC
 : -3.2, 1.2, -2.2, -19.8, 96.3, 6.7, -0.3, 7.5, 12.8
21) C=C(CC)C(=O)c1ccc(OCC(=O)O)c(Cl)c1Cl
 : -2.3, 2.7, -0.2, -6.3, 118.5, 3.8, 1.8, -21.4, -6.7
22) COc1ccc(C(=O)NCc2cccnc2)cc1C(=O)NCc1cccnc1
 : -4.3, 2.6, -1.5, -18.2, 102.6, -18.4, -5.1, 9.8, 16.1
23) CN/C(=C\[N+](=O)[O-])NCCSCc1ccc(CN(C)C)o1
 : 2.1, 3.0, -3.6, -28.8, 127.5, 12.6, 0.3, 13.9, 349.1
24) CC(C)NCC(O)c1cc(O)cc(O)c1 (configuration not stated)
 : -4.3, 2.9, 3.5, -6.0, 102.0, 7.4, 1.7, 1.1, 2.9
25) CN(C)CC[C@@H](c1ccc(Br)cc1)c1ccccn1
 : -2.1, 3.5, -1.8, 7.1, 106.6, 1.4, -2.0, 11.8, 21.2
26) CC(C)NC[C@H](O)COc1cccc2ccccc12
 : -2.4, 3.6, 0.3, 6.4, x, 8.4, -1.8, -14.4, -0.8
27) OCC(O)[C@@H](O[C@H]1O[C@H](CO)[C@@H](O)[C@H](O)[C@H]1O)[C@H](O)[C@@H](O)CO (some centres not stated)
 : 1.1, 2.2, 0.2, -15.7, 95.2, 8.1, 6.4, -1.1, 7.1
28) CN1CCN(CCCN2c3ccccc3Sc3ccc(C(F)(F)F)cc32)CC1
 : -4.4, 0.8&1.7&2.7, -2.3, 2.5&-5.4&-27.2, 113.5&115.9&100.0, -15.3&-15.5&-14.7, -0.6&1.4&7.6, -1.2&0.0&3.4, 30.0
29) c1ccc2c(c1)CCCC2C1=NCCN1 (configuration not stated)
 : -0.1, 3.5, -1.0, -14.7, 115.5, -9.0, 4.9, 2.8, -17.1
30) CC1(C)SC2C(NC(=O)COc3ccccc3)C(=O)N2C1C(=O)O (configuration not stated)
 : -3.0&1.5, 2.5&1.4, -3.4&1.8, -6.6&-5.0, 101.5&96.3, -17.0&15.8, 1.8&-5.3, -10.1&8.3, 3.6

Not a retest: entries from further up.
Results follow in this order: AddAB inh, phage Ecoli inh, Ecoli viability, HTR5A inv ag, Pemphigus Ab inh, PfHsp90 set2, HTR5A ag ctr, PKA-R1A activ, SUMO Mot1 rescue
27) OCC(O)[C@@H](O[C@H]1O[C@H](CO)[C@@H](O)[C@H](O)[C@H]1O)[C@H](O)[C@@H](O)CO (some centres not stated)
 : 1.1, 2.2, 0.2, -15.7, 95.2, 8.1, 6.4, -1.1, 7.1
28) CN1CCN(CCCN2c3ccccc3Sc3ccc(C(F)(F)F)cc32)CC1
 : -4.4, 0.8&1.7&2.7, -2.3, 2.5&-5.4&-27.2, 113.5&115.9&100.0, -15.3&-15.5&-14.7, -0.6&1.4&7.6, -1.2&0.0&3.4, 30.0
29) c1ccc2c(c1)CCCC2C1=NCCN1 (configuration not stated)
 : -0.1, 3.5, -1.0, -14.7, 115.5, -9.0, 4.9, 2.8, -17.1
30) CC1(C)SC2C(NC(=O)COc3ccccc3)C(=O)N2C1C(=O)O (configuration not stated)
 : -3.0&1.5, 2.5&1.4, -3.4&1.8, -6.6&-5.0, 101.5&96.3, -17.0&15.8, 1.8&-5.3, -10.1&8.3, 3.6

Additional structures follow:
Results follow in this order: AddAB inh, phage Ecoli inh, Ecoli viability, HTR5A inv ag, Pemphigus Ab inh, PfHsp90 set2, HTR5A ag ctr, PKA-R1A activ, SUMO Mot1 rescue
31) COc1ccc2[nH]cc(CCNC(C)=O)c2c1
 : 2.1, 5.2, 0.6, -10.5, 114.8, 0.3, 2.9, -7.3, 9.4
32) C#CC1(O)CCC2C3CCC4=C(CCC(=O)C4)C3CCC21C (configuration not stated)
 : x, 3.1, x, -5.8, 89.5, x, 1.6, 8.4, x
33) Nc1ccc(S(=O)(=O)Nc2ccccn2)cc1
 : 1.6, 6.1, -0.9, 7.9, x, 20.6, -2.2, 3.4, -8.0
34) O=C(O)CC(O)(CC(=O)O)C(=O)O
 : 1.9, 0.1, -2.3, -27.2, 95.7, 3.2, 0.0, 0.4, 2.4
35) CC(C)(O)c1ccccc1CC[C@@H](SCC1(CC(=O)O)CC1)c1cccc(/C=C/c2ccc3ccc(Cl)cc3n2)c1
 : -1.9, x, -1.1, -2.1, 114.5, 7.0, 4.9, 1.6, -11.0
36) COc1cc(C(=O)OCCCN2CCCN(CCCOC(=O)c3cc(OC)c(OC)c(OC)c3)CC2)cc(OC)c1OC
 : -0.2, 2.4, -2.0, -11.2, 118.0, 14.7, -1.4, -2.8, -7.9
37) CN(C)CCC(c1ccc(Br)cc1)c1ccccn1 (configuration not stated)
 : -2.4&-0.6, 4.4&5.3&3.3, 1.6&-0.2, -11.6&19.5&-2.7, 119.0&106.8, -0.5&1.3&-5.5, 3.3&-4.0&-3.7, -6.3&-10.4&1.9, 105.6&-7.8
38) CC(C)(Oc1ccc(Cl)cc1)C(=O)O
 : -1.1, 4.0, -0.8, -20.9, 117.8, -3.1, -1.7, 1.6, 381.5
39) Cc1cc(C(=O)NNCc2ccccc2)no1
 : -0.6, 3.0, -0.9, 0.8, x, 13.7, -0.2, 1.5, 6.6
40) CCCC(=O)Nc1ncnc2c1ncn2[C@@H]1O[C@@H]2COP(=O)(O)O[C@H]2[C@H]1OC(=O)CCC
 : -0.8, 3.2&3.8, -0.9, -6.1&-9.8, 100.1&104.4, 16.9&3.2, -3.1&4.3, 40.7*, -1.2&-26.1
41) CC(=O)CC(c1ccc([N+](=O)[O-])cc1)c1c(O)c2ccccc2oc1=O (configuration not stated)
 : -0.4, 2.7, 0.5, -11.5, 99.5, -3.5, 3.2, -1.2, 222.1&7.9
42) CCC(=O)OCC(=O)C1(OC(=O)CC)[C@H](C)C[C@H]2[C@H]3[C@H]([C@@H](O)C[C@@]21C)[C@@]1(C)C=CC(=O)C=C1C[C@H]3Cl (some centres not stated)
 : 0.2, 3.2, 0.3, -15.8, 95.1, -3.1, 0.1, -4.6, 19.3
43) CC(=O)C1CCC2C3CCC4CC(=O)CCC4(C)C3C=CC12C (configuration not stated)
 : x, 1.6, x, -6.3, x, 2.0, 1.6, -12.5, x
44) Oc1c(Cl)cc(Cl)c(Cl)c1Cc1c(O)c(Cl)cc(Cl)c1Cl
 : 10.5, 17.2*, 12.2*, 4.1, 82.9, 107.9*, 2.5, -6.6, 480.9*
45) OC1C(O)C(O)C(O)C(O)C1O (configuration not stated)
 : -3.5&-3.2&-3.2, 2.9&3.8&3.8, -2.7&-0.4&-1.8, -8.7&-6.8&5.0, 113.6&102.2&93.7, -16.5&-0.4&-0.6, -0.5&1.9&-1.4, 7.3&-0.4&2.6, -1.8&41.0&5.3

A draw from above in order of molecular weight, rising:
Results follow in this order: AddAB inh, phage Ecoli inh, Ecoli viability, HTR5A inv ag, Pemphigus Ab inh, PfHsp90 set2, HTR5A ag ctr, PKA-R1A activ, SUMO Mot1 rescue
45) OC1C(O)C(O)C(O)C(O)C1O (configuration not stated)
 : -3.5&-3.2&-3.2, 2.9&3.8&3.8, -2.7&-0.4&-1.8, -8.7&-6.8&5.0, 113.6&102.2&93.7, -16.5&-0.4&-0.6, -0.5&1.9&-1.4, 7.3&-0.4&2.6, -1.8&41.0&5.3
39) Cc1cc(C(=O)NNCc2ccccc2)no1
 : -0.6, 3.0, -0.9, 0.8, x, 13.7, -0.2, 1.5, 6.6
42) CCC(=O)OCC(=O)C1(OC(=O)CC)[C@H](C)C[C@H]2[C@H]3[C@H]([C@@H](O)C[C@@]21C)[C@@]1(C)C=CC(=O)C=C1C[C@H]3Cl (some centres not stated)
 : 0.2, 3.2, 0.3, -15.8, 95.1, -3.1, 0.1, -4.6, 19.3

Screens deposited in PubChem by several laboratories.

These rows are one share of the data (hit frequency here may not be typical).
